# RanGTP-Imp inh – inhibitors of RanGTP-importin-beta interaction, primary screen, biochemical, FRET, CFP-Ran, YFP-importin-beta, homogeneous; cell-free CFP-Ran/YFP-importin-beta FRET ratio; inhibition, % (no concentration beside the values); actives 1.1% (n = 300,000);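 active = most replicates above 15%; inconclusive = exactly half above 15%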;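 also: 0% = DMSO wells and 100% = Ran loaded with GDP instead of GTP; wells of about 40 µL received 100 nL stock; the first replicate is given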
# HNF4A DNA FP – change in binding of human HNF4 alpha to DNA; actives 0.3% (n = 360,000); HNF4a-FITC DNA binding, fluorescence polarization, 1 h; activity change, % at 10 µM; AID 1224865; P41235; in the data active = activity change above about 30%, passing the limit was not always enough;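 also: controls were the assay level and a saturating level of protein; the project sought stronger binding though the title names inhibitors; some compounds called inactive have numbers as strong as hits; positive values seem to mean higher polarization but the record does not say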
# LANA-H2B inh – blocks KSHV LANA binding to histone H2A/H2B | Q9QR71 | cell-free LANA-H2A/H2B peptide, fluorescence polarization | inhibition, % (concentration not given with the values) | actives 0.6% (n = 320,000) | AID 2629; in the data active = inhibition mostly above about 10%, no sharp cut-off; inactive = mostly below about 6.7%;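 also: stock transfer was 7.5 nL into about 10 µL; 0% = median of vehicle wells and 100% = median of positive control wells; one replicate is shown; the record names a cut of 25% in any replicate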
# Target sequence (Q9QR71 whole entry, looked up): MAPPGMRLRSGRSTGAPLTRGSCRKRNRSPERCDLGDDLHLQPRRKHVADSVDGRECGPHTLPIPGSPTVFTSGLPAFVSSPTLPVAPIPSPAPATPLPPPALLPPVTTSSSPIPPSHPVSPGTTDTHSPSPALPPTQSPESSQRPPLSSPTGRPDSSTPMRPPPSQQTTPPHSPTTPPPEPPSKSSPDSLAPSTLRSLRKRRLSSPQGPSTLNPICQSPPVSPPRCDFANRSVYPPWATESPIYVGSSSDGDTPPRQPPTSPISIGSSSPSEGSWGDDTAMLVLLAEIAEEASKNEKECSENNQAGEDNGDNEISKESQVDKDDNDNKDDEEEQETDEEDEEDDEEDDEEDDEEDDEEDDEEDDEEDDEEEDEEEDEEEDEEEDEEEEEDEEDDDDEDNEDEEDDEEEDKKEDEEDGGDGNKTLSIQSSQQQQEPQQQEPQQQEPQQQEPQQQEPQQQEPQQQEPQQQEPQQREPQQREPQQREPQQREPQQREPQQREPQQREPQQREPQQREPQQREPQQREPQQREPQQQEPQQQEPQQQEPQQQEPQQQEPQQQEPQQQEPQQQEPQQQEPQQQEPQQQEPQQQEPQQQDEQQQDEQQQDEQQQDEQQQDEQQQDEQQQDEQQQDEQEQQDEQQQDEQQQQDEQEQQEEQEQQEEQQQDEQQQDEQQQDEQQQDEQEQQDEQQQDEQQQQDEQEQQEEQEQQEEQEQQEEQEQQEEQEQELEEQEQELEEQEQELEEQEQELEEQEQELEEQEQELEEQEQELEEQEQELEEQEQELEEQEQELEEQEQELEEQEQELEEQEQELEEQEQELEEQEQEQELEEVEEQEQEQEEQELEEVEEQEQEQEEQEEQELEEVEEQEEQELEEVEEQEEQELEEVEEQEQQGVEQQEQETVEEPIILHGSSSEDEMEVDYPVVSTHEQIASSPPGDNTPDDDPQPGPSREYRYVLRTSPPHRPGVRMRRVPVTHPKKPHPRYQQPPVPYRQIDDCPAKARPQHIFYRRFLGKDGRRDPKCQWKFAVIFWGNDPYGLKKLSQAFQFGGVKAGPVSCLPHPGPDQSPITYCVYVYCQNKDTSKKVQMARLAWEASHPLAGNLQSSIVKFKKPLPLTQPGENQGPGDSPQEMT
# Calb FLC – affects C. albicans growth with fluconazole | C. albicans CaCi-2 (fluconazole-resistant clinical isolate) + fluconazole, Alamar Blue growth, 48 h | growth inhibition, % (no concentration beside the values) | actives 0.57% (n = 300,000) | AID 1979;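 active = most replicates above 75%; inconclusive = exactly half above 75%; inactive = most below 75%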;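 also: all wells also contain fluconazole at 8 µg/ml as a sub-toxic cotreatment; 0% = median of DMSO wells and 100% = median of geldanamycin control wells; wells of about 8 µL received 7.5 nL stock; the first replicate is given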
# Vif A3G – inhibitors of Vif binding to APOBEC3G peptide, primary screen, biochemical, TR-FRET, GST-Vif 1-94, biotin-A3G peptide, dose response retest (AID 1117319) | TR-FRET GST-Vif / biotin-A3G peptide binding; higher % means a stronger effect; test concentration not given here; strong numbers were not always called active | one-dose inhibition, %; IC50 in µM for titrated hits | actives 0.57% (n = 260,000);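 active = above the screen mean plus three standard deviations and confirmed in dose response; inconclusive = results disagree or hit not tested in dose response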;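 also: Vif residues 1-94 fused to GST binding biotinylated APOBEC3G peptide 110-148; 0% = full assay without inhibitor and 100% = GST in place of GST-Vif; retest series ran down from 100 µM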
# ALR H2O2 inh – human ALR oxidase inhibition via reduced H2O2; P55789; purified ALR, DTT oxidation, H2O2 HRP-luminol luminescence; inhibition, % (concentration not given with the values); actives 3.8% (n = 290,000);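 active = mean and each replicate at 75% or more; inconclusive = only one of the two met; inactive = neither met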;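 also: stock transfer was 7.5 nL into about 7.5 µL; 0% = neutral wells and 100% = wells with inactivated enzyme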
# B2AR ag – agonists of human beta-2 adrenergic receptor inducing internalization; P07550; response, % (test concentration not listed); actives 0.43% (n = 340,000); AID 504454; Am2.2-beta2AR cells, FAP receptor internalization, flow cytometry; reference of the scale not given here;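 active = response above a set limit, near 3 SD of response in nonfluorescent compounds, cut at about 42% in these data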;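 also: stock transfer was 100 nL into about 11 µL; a reference agonist was the positive control; negative values mostly stem from fluorescent compounds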
# * marks the source's active call; other numbers are inactive results; ? = inconclusive; · = not tested or not shown; & = joins results of further samples. The order is random, and some 6.3% of all compounds hit somewhere here.
SMILES,RanGTP-Imp inh,HNF4A DNA FP,LANA-H2B inh,Calb FLC,Vif A3G,ALR H2O2 inh,B2AR ag
CCOC(=O)N1CCc2c(sc3c2c(=O)n(Cc2ccccc2)c(=O)n3Cc2cccc(C)c2)C1,-0.4,3.6,-0.7,20,-7%,·,7
CCC(CC)NC(=O)CSc1nnc(-c2ccc(OC)cc2)n1C(C)C,-0.6,-0.2,-4.5,-9,?,-2,-7
COc1cc(=O)[nH]c(SC(C)C(=O)Nc2nc3c(s2)CCCC3)n1 (configuration not stated),-0.7,1.4,-4.2,-2,·,3,1
O=C(Cn1cnc2c(cnn2-c2ccccc2)c1=O)N1CCN(c2ccc(F)cc2)CC1,-0.6,-2.0,0.7,4,-4%,-2,5
CCOC(=O)/C(C#N)=C(C)/C=C1\Sc2ccccc2N1CC,19*,-33,6.9,-5,·,1,-9
Cn1c(/C=N/NC(=O)c2ccccc2)nc2ccccc21,2.0,-0.8,0.8,1,7%,-2,-17
COc1ccc(-c2nnc3ccc(SCC(=O)N4CCCCC4)nn23)cc1OC,4.9,-1.2,4.5,-7,17%,-13,-5
Cc1cc(C)c(NC(=O)CSc2nnc(SCC(=O)Nc3c(C)cc(C)cc3C)n2N)c(C)c1,2.3,-1.0,2.4,4,?,-2,-5
COc1ccc(CC(=O)NCc2n[nH]c(=S)n2-c2ccc(Br)cc2)cc1,-1.0,-0.2,-2.7,-2,3%,18,-1
Cc1cccc(NC(=O)CCc2ccc(S(=O)(=O)NC3CCCCC3)cc2)c1,0.7,-1.1,-1.2,0,11%,-6,-2
COc1ccc(CC(=O)Oc2ccccc2C)cc1S(=O)(=O)N1CCOCC1,3.0,4.1,-1.8,-4,-9%,2,-6
COc1ccc(C(=O)/C=C/Nc2cc(C)ccn2)cc1,-0.7,4.3,1.7,-9,-3%,-9,4
Cc1cccc(C)c1N=C1SC(CC(=O)Nc2c(C)cccc2C)C(=O)N1CCc1ccccn1 (configuration not stated),?,-1.1,-1.8,-3,·,0,-17
CC(=O)c1ccc(N2CCN(C(=O)CCN3C(=S)NC(C)(C)CC3C)CC2)cc1 (configuration not stated),-5.4,1.0,-3.1,-7,-1%,1,3
CCOC(=O)C1C(=O)C=C(c2ccc(Br)cc2)CC1c1ccco1 (configuration not stated),-1.9,-0.1,-1.8,-8,-5%,30,-9
O=S(=O)(c1ccccc1)N1CCN(c2nc(-c3cccnc3)nc3ccccc23)CC1,·,1.8,·,·,-10%,·,21
CCCOc1ccc(C(=O)OCC(=O)c2c(N)n(C)c(=O)n(C)c2=O)cc1OCC,-3.0,2.2,1.5,12,·,-1,4
N#Cc1c(N)n[nH]c1-c1cc2c([nH]1)CCCC2,-2.6,1.4,-4.1,11,26%,98*,9
COc1ccc(C(C)=O)cc1COC(=O)c1c(C)noc1C,-0.3,-5.8,0.6,25,?,-7,-16
ON=C1c2ccccc2-c2ccc(Br)cc21,·,1.8,·,·,6%,·,0
O=C(/C=C/c1cccs1)N1CCOCC1,-1.3,-2.8,1.9,-10,·,-10,-2
Cc1[nH]c(C)c(S(=O)(=O)NCC(C)c2ccccc2)c1C(=O)N1CCCCC1 (configuration not stated),3.9,4.0,12,-37,·,5,-3
COc1ccc(-c2nc(CS(=O)CC(=O)NCCC3=CCCCC3)c(C)o2)cc1 (configuration not stated),-3.5,-0.5,-3.4,0,-2%,99*,-12
CC(C)OC(=O)C(C)Nc1ccc(F)c(Cl)c1 (configuration not stated),-0.5,-0.8,4.4,-12,-5%,-29,-1
COc1ccc(NC(=O)CS(=O)(=O)Cc2nc(-c3ccc(C)cc3)oc2C)cc1,1.1,2.0,4.7,-18,17%,-2,2
CCCCCCCCN1[C@@H](CC(=O)OCC)c2cc(F)ccc2S1(=O)=O,-2.5,-3.5,-4.7,-3,·,-17,0
Cc1ccc(S(=O)(=O)N(C)c2ccc(C(=O)N3CCN(Cc4ccc5c(c4)OCO5)CC3)cc2)cc1,1.8,2.4,6.7,15,-3%&-3%,-14,23
COc1ccc(C2=CC(=O)C[C@H](c3ccc(Cl)cc3)C2)cc1,·,-1.6,-5.6,·,·,2,-12
O=C(CCn1c(=O)[nH]c2ccsc2c1=O)N1CCN(c2cccc(Cl)c2)CC1,-0.3,0.8,1.5,0,-2%,·,-9
Cc1ccc(CNC(=O)CCS(=O)(=O)c2ccc(Cl)cc2)cc1,0.0,3.3,4.0,-3,12%,·,2
C=CCNC(=O)c1ccc(-c2ccc([N+](=O)[O-])cc2)o1,-1.2,-3.4,-1.0,5,16%,34,2
O=C(O)c1ccc(/C=N/N2CCN(c3ccccc3)CC2)cc1,-3.9,0.7,-1.4,1,5%,34,10
COc1ccc(/C=C/C(=O)N(Cc2cccs2)C2CCS(=O)(=O)C2)cc1 (configuration not stated),4.4,-1.2,3.2,3,5%,-5,0
Cn1c(SCC(O)c2ccccc2)nnc1-c1ccc2ccccc2c1 (configuration not stated),-0.2,-1.0,-2.7,-2,-2%,-10,-2
Cc1onc(-c2c(Cl)cccc2Cl)c1C(=O)NNC(=O)c1c(-c2c(Cl)cccc2Cl)noc1C,2.9,-0.6,-1.6,-3,-10%,4,-2
Cc1ccc(N2C(=O)CC(Sc3ncccn3)C2=O)cc1C (configuration not stated),-2.2,-0.9,2.8,-1,·,0,10
O=C(Nc1nc(-c2ccccc2)cs1)NC1CCCCC1,-0.7,2.6,-25,-16,17%,9,-5
O=C1CCC(=O)N1CNc1ccc(Oc2ccccc2)cc1,-3.0,0.9,3.2,-44,-2%,98*,-10
O=c1cc(CSc2nnnn2-c2ccccc2)nc2nc[nH]n12,4.1,0.8,3.7,0,2%,·,1
CCCCCC(=O)Nc1cc(S(=O)(=O)N2CCOCC2)ccc1N1CCCCC1,-2.7,4.7,0.7,10,-10%,-98,-9
N=P(N1CCOCC1)(N1CCOCC1)C12CC3CC(CC(C3)C1)C2,1.7,0.4,3.3,1,-5%,4,-7
CC(=O)c1ccc(S(=O)(=O)NCC2(N3CCOCC3)CCCCC2)cc1,·,-0.1,2.8,·,·,0,0
COc1ccc(-c2nc3ccccc3n2CCC(C)C)cc1OC,3.8,-1.7,4.0,0,-1%,-1,-22
CCCN1C(=O)c2ccccc2NC1c1ccc(OC)c(CSc2ccccn2)c1 (configuration not stated),2.2,-0.1,-3.0,1,·,-2,-9
CCN(c1ccccc1)S(=O)(=O)c1cccc(C(=O)NCc2cccnc2)c1,6.4,-1.3,0.7,-9,6%,-6,-4
COC(=O)C1CCN(C(=O)c2cc3c(=O)n4cccc(C)c4nc3n2Cc2ccccc2)CC1,0.9,0.9,0.6,21,-11%,2,5
CC(C)(C)c1ccc(C(=O)NCCC(=O)Nc2ccc(S(=O)(=O)Nc3nccs3)cc2)cc1,·,-1.3,·,·,0%,·,6
C=CCn1c(NCc2ccccc2OC)nc2ccccc21,-1.0,1.6,-1.0,5,·,·,-2
Cc1cc(CNC(=O)COc2c(F)c(F)cc(F)c2F)c2ccccc2n1,8.1,-2.1,-4.5,2,3%,-3,-4
CCn1nc(C)c(CN2CCCC(CO)(Cc3cccc(Cl)c3)C2)c1C (configuration not stated),-0.9,0.9,-3.4,-7,?,1,0
Cc1cc(-c2ccc(C)c(S(=O)(=O)NCCC(C)N3CCCCCC3)c2)on1 (configuration not stated),0.7,2.8,3.2,-20,·,-2,-5
S=C1NC[C@H](CC2CCCCC2)N1CCCCC1CCCCC1,1.1,-3.5,2.9,-5,-2%,-4,7
O=C(COC(=O)c1cncc(Br)c1)NC1CCCCC1,3.3,0.2,8.6,-21,0%,·,-2
COc1ccc(S(=O)(=O)NNC(=O)c2ccccc2-n2cccc2)cc1,-1.5,-0.5,0.8,8,2%,24,-9
CCCC[C@@H]1CCCO[C@@](C(=O)NCc2cc(C)n(C)n2)(C(F)(F)F)C1,-5.7,-1.8,5.2,5,·,-1,-3
Cc1nn(CC2CC2)c(=O)n1-c1ccc(Oc2ccccc2)cc1,1.1,1.6,-1.4,?,-11%,-14,-9
O=S(=O)(/N=C(\c1ccccc1)N1CCOCC1)c1ccc(Cl)cc1,5.9,1.2,1.8,-8,?,-4,-1
Cc1ccc(C)c(S(=O)(=O)N(C)Cc2cccs2)c1,·,-2.7,-1.4,·,12%,-7,-2
CCN1CCN(Cc2c(OC)ccc3ccccc23)CC1,0.6,-1.0,-2.0,2,2%,-29,2
O=C(NCCC1=CCCCC1)c1cc2c(s1)CS(=O)(=O)C2,-3.8,-0.6,1.1,21,5%,-5,-3
# Further entries.
SMILES,RanGTP-Imp inh,HNF4A DNA FP,LANA-H2B inh,Calb FLC,Vif A3G,ALR H2O2 inh,B2AR ag
CN(C)CCOc1ccc2ccccc2c1,-5.4,3.5,0.5,-7,-5%,-7,-1
CCCOc1ccc(N2C(=O)CC(N(CCc3ccccc3)C(=O)c3ccccc3)C2=O)cc1 (configuration not stated),-2.4,0.7,1.6,4,-4%,-33,-1
O=Cc1ccc(OC(=O)Cc2ccc(F)cc2)cc1,-0.4,·,-1.5,2,·,-6,·
CCOC1=NN(c2ccc(Cl)cc2)C(=O)/C1=C\N(C)C,2.5,-0.1,0.2,-3,12%,5,-4
CCc1nnc2n1N=C(c1ccc(Br)cc1)CS2,3.1,0.1,-4.1,-4,-13%,5,6
CCOC(=O)c1ccc(NC(=O)CSc2nnc(-c3cccs3)n2CC)cc1,4.0,2.5,-1.5,9,-19%,-7,-4
O=C(O)c1ccc2c(c1)C(=O)N(Cc1ccco1)C2=O,-0.6,-3.7,-3.7,12,1%,·,-11
COc1ccccc1C1(CC(=O)O)CCOC(C)(C)C1 (configuration not stated),5.1,-2.0,-2.0,3,13%,1,-6
CC1C(C)C(O)(c2ccccc2)CCN1C (configuration not stated),3.7,0.4,0.1,-3,11%,·,8
CC(C)(C)c1ccc(COc2ccsc2C(=O)O)cc1,·,-4.9,-0.7,-16,?,6,4
C=CCNC(=O)CN(c1cccc(Br)c1)S(C)(=O)=O,-1.6,-1.6,3.2,2,9%,-8,0
NC(=S)COc1ccccc1,-2.0,1.0,0.1,-4,·,-5,0
CC(=O)NNc1cc(=O)c2c(=O)n(C)c(=O)n(C)c2[nH]1,2.2,0.0,-3.9,-11,0%,90*,4
CC(=O)NC(C)c1nc2ccccc2n1CC(=O)NC(C)CCc1ccccc1 (configuration not stated),-4.2,3.1,-4.0,-14,-4%,-9,6
CCOc1ccc(S(=O)(=O)Nc2ccc3c(c2)n(C)c(=O)n3C)cc1,4.0,4.0,4.4,-9,·,·,9
Cc1ccccc1-n1c(SCC(=O)NCc2cccs2)nnc1-c1ccncc1,1.5,-1.6,1.9,8,1%,-1,-1
CCOC(=O)c1ccc(NC(=O)c2nc[nH]c2C(=O)NCc2ccccc2)cc1,2.9,3.4,-0.3,7,-1%,1,4
COC(=O)N[C@H](CC(C)=O)c1cccc(C(F)(F)F)c1,0.8,-4.2,0.4,6,22%,-3,0
CCOC(=O)c1[nH]c(C)c(C(=O)OCc2c(C)noc2C)c1C,-0.7,-2.2,-2.0,-5,7%,-3,-4
C#CCOc1ccccc1/C=C1/C(=O)ON=C1C,-1.1,1.4,-3.0,-1,-3%,·,-6
NN1C(=O)NC(c2ccccc2)(c2ccccc2)C1=O,4.1,2.9,1.5,-9,-11%,-2,2

# Assay outcomes deposited in PubChem BioAssay by several laboratories.
